# RecA splice inh = Mtb RecA intein splicing inhibitors, primary screen, biochemical, fluorescence, HTS. Protein RecA (Mycobacterium tuberculosis (strain ATCC 25618 / H37Rv)), P9WHJ3. cell-free RecA intein splicing. inhibition, %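 (about 9 µM by stock and volumes)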. 0.75% of 290,000 active; in the data active means inhibition above about 30%; inconclusive means no clear call, values can overlap the other calls;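 further: 0% = vehicle wells and 100% = reference inhibitor control wells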
# Target sequence (P9WHJ3 whole entry, looked up, canonical isoform): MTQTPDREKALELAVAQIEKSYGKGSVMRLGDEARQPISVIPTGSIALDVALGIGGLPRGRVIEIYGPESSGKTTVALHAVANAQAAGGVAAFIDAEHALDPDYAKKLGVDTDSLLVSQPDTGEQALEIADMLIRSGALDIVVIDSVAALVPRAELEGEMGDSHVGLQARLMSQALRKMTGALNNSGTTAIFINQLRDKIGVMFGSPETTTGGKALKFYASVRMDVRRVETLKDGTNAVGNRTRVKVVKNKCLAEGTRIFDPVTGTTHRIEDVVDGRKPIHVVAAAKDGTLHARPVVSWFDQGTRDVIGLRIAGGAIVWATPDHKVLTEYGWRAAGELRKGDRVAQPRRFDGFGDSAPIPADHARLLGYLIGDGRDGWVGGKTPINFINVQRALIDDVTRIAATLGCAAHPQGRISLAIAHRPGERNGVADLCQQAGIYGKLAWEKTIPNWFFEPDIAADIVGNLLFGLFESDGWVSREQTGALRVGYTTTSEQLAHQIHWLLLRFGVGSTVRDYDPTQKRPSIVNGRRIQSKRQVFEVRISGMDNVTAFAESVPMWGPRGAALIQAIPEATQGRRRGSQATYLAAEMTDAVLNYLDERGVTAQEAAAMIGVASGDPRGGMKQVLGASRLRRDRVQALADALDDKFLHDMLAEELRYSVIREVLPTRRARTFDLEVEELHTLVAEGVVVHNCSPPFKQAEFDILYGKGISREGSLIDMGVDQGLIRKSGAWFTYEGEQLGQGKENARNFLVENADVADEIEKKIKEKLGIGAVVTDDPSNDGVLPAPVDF
# YopH inh = YopH tyrosine phosphatase inhibitors, primary screen, biochemical, fluorescence Ex485/Em525 | 0.16% of 140,000 active | inhibition, %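 (about 10 µM by stock and volumes)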 | AID 898, 2007;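 active means inhibition of 50% or more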;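 further: controls were vehicle for no effect and minimum signal wells for full effect; inactives centre near -20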
# Arbovirus inh = antivirals against arbovirus infection, primary screen, cell-based, full library, 10K replicate subset. arbovirus infection cell-based antiviral screen. inhibition, % at 10 µM. 0.37% of 200,000 active. AID 1251, 2008;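 active means inhibition from about 30%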;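 further: bluetongue infection of BSR cells; cell survival read as ATP light after 72 h; 0% = infected wells without compound and 100% = uninfected wells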
# Mtb betalactam = beta-lactam sensitization of Mtb H37Rv, H37Rv; AID 434955, 2010; inhibition, % at 25 µM; M. tuberculosis H37Rv growth with meropenem, percent inhibition; hits of this screen are not shown here; 0.27% of 330,000 active;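 active means about 74% or more and at least 40 points above the plate without the antibiotic, then above 30% in a dose series; inconclusive means first-round hits that could not be retested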;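 further: growth measured after seven days incubation then overnight dye step; 0% = bacteria only wells and 100% = bacteria with antibiotic; twin plates without the antibiotic show which effects depend on it; some results filed as inactive read as strong as hits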
# Mtb growth = M. tuberculosis H37Rv growth inhibitors, H37Rv strain (AID 1626); M. tuberculosis H37Rv growth inhibition; higher % means a stronger effect; one-dose inhibition, % at 10 µM; IC50 in µM for titrated hits; 0.95% of 220,000 active;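 active means confirmed in a dose series; inconclusive means inhibition above 80% but not taken into the dose series; inactive means below 80% or under 30% at every dose of the series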;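 further: bacteria incubated seven days before Alamar blue readout; 0% = bacteria only wells and 100% = bacteria with antibiotic wells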
# Arbovirus inh repeat = further read-out of Arbovirus inh, marked with its call; inhibition, %; measured here: 10K subset replicate screen; many hits read low in the repeat;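 first of two repeat runs on a subset; 0% = infected and 100% = uninfected wells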
# Active calls of the source: *; u = inconclusive; x = no result given; & = joins results of further samples. Some of the compounds tested; count on the stated rates, not on these rows.
SMILES,RecA splice inh,YopH inh,Arbovirus inh,Mtb betalactam,Mtb growth,others
C=CCn1c(SCC(=O)Nc2cccc(C)c2)nnc1-c1cnccn1,-0.6,-51,1,10,0%,
COc1ccccc1CNC(=O)/C=C/c1ccc(S(=O)(=O)N2CCOCC2)cc1,1.2,x,2,1,-1%,
COC(=O)c1ccc(C(C(=O)NC2CCCCC2)N(CCc2ccccc2)C(=O)Cc2cccs2)cc1 (stereo not given),-0.1,-22,-1,2,3%,
CN(C)/C=C/c1onc(-c2c(Cl)cccc2Cl)c1C#N,2.5,x,8,-1,6%,
CCN1CCN(Cc2ccc(NC(=O)c3ccc(C)c(NC(=O)c4c[nH]c5cc(C(F)(F)F)ccc5c4=O)c3)cc2C(F)(F)F)CC1,-2.3,x,x,100,3.9µM*,
CC1CCCCN1C(=O)CCS(=O)(=O)Cc1ccccc1 (stereo not given),11,x,x,1,x,
CC1=NNC(=O)C1C(c1ccccc1)C1C(=O)NN=C1C (stereo not given),98*,x,-8,-8,-11%,
CCOc1cc(C(=O)O)ccc1OCCOc1ccccc1,-0.9,x,x,0,x,
COc1ccc(NS(=O)(=O)c2ccc(S(=O)(=O)N3CCCC3)cc2)cc1Cl,-1.1,9,14,-14,-2%,
CCCS(=O)(=O)N1CCC(C(=O)N2CCc3ccccc3C2)CC1,6.4,-56,3,-8,-2%,
COc1ccc2cc(/C=N/NC(=O)CN(c3ccccc3)S(=O)(=O)c3ccccc3)c(Cl)nc2c1,1.9,-19,-11,-2,0%,
C/C(=N\NC(N)=S)C1(C)CCCCC1,-1.3,-29,-12,47,47%,
CCOC(=O)N1CCC(NC(=O)C2CCN(C(=O)c3cc4oc(C)cc4n3Cc3c(F)cccc3Cl)CC2)CC1,-0.1,x,1,72,35%,
CC(C)c1csc(CN2CCC(N3CCC(C(=O)NCC4CCCO4)CC3)CC2)n1 (stereo not given),-2.7,x,1,5,-9%,
COc1ccc(/C=N/n2c(C)nnc2C)c(OC)c1,-0.9,-43,-5,-12,14%,
O=C(Cc1ccccc1Cl)N1CCN(c2ncccn2)CC1,3.7,x,25,-7,-6%,
CCOC(=O)COc1ccc2c(c1)C(=O)CC1(CCN(C(C)=O)CC1)O2,-7.4,-5,2,x,1%,
CC(=O)N1CCc2cc(S(=O)(=O)NCCC(=O)N3CCN(c4ccccn4)CC3)ccc21,-0.5,-28,1,-3,1%,
CS(=O)(=O)Nc1ccc(C2=NN(S(C)(=O)=O)C(c3ccc4nccnc4c3)C2)cc1 (stereo not given),-1.3,x,4,20,2%,
COc1ccc2c(c1)c1ncn(Cc3ccc(F)cc3)c(=O)c1n2C,-1.2,x,x,-10,1%,
Cc1oc(-c2cccc(Cl)c2)nc1CN1CCC(C(=O)NCCCN2CCCC2=O)CC1,1.0,-48,-1,u,-1%,Arbovirus inh repeat=-1
CCOc1ccc(N2CC(C(=O)Nc3ccc(S(=O)(=O)N4CCCC4)cc3)CC2=O)cc1 (stereo not given),2.1,x,x,1,x,
COC(C(=O)Nc1ccnn1C1CCN(Cc2cnn(C(C)C)c2)CC1)c1ccccc1 (stereo not given),-0.9,x,x,-13,x,
Clc1cccc(/C=N/Nc2nnc(Cl)c3ccccc23)c1,0.1,-41,-4,8,-2%,
Cn1c(O)c(C2=c3ccccc3=NC2=O)[nH]c1=S,-0.7,-22,-7,x,u,
SMILES,RecA splice inh,YopH inh,Arbovirus inh,Mtb betalactam,Mtb growth,others
COC(=O)c1ccccc1NC(=O)CCC(=O)N1CC(C)Oc2ccc(C)cc21 (stereo not given),5.8,x,x,1,x,
Cc1ccc(CNS(=O)(=O)c2c(C)[nH]c(C)c2C(=O)N2CCCCC2)cc1,-1.9,x,x,u,x,
N/C(COc1cccc(C(F)(F)F)c1)=N\NC(=O)c1cccnc1Oc1ccccc1,0.3,-34,-10,-4,-1%,
O=C(NC(=S)NNC(=O)c1ccco1)c1ccc(F)cc1,1.5,x,x,89,x,
CCOC(=O)CSc1nc(C)c(CC)c(C)c1C(N)=O,-1.5,x,-3,1,0%,
CC(C1CC1)N(Cc1ccccc1)C(=O)NC(=O)c1cccc(F)c1 (stereo not given),3.2,x,-5,-8,4%,
O=C(Nc1cccc(F)c1)C1CCN(c2nnnn2-c2ccccc2)CC1,0.5,-4,-4,-6,1%,
CN1CCCc2cc(C#N)c(=O)[nH]c21,-4.2,-4,1,-10,-1%,
Cc1ccc(C(=O)OCC(=O)NC2CCCC2)cc1,0.0,x,x,2,x,
CCN(CC(=O)NCc1cccs1)S(=O)(=O)c1ccc(NC(C)=O)cc1,-9.0,x,2,-2,7%,
CCN(CC)C(=O)/C(=C\c1ccncc1)NC(=O)c1ccccc1,-2.5,x,4,-5,-3%,
O=C1CC(c2ccccc2)Cc2nc(N3CCc4ccccc43)ncc21 (stereo not given),2.2,-8,x,1,6%,
COc1ccc(N(CC(=O)NCc2ccc(C)cc2)S(=O)(=O)c2c(C)nn(C)c2C)cc1,1.2,-23,1,56,-6%,
CCN(CCNc1ccc(Cl)cc1[N+](=O)[O-])C(=O)c1cc([N+](=O)[O-])c(N(C)C)cc1OC,1.5,-36,4,-12,6%,
O=C(OCCCCN1C(=O)c2ccccc2C1=O)c1ccc(Br)o1,1.3,-33,1,-1,-5%,
COC(=O)c1ccccc1NC(=S)N(Cc1ccc2c(c1)OCO2)Cc1cc2ccc(C)cc2[nH]c1=O,2.9,-23,-3,u,12%,
Cc1ccccc1S(=O)(=O)/N=C(/c1ccccc1)N1CCOCC1,-3.2,x,2,-3,-4%,
CC1CCN(CC(=O)c2ccccc2Cl)CC1,0.9,-18,-9,3,-4%,
COc1ccc(/C=C/C(=O)NC2CCCCC2C)cc1 (stereo not given),2.1,x,x,4,x,
O=C(Nc1ccc(Cl)cc1)C1CC2CCCC(C1)C2=O (stereo not given),1.4,-22,14,98,-7%,Arbovirus inh repeat=6
O=C(NCCC1=CCCCC1)C(=O)NCC1OCCCN1S(=O)(=O)c1cc(F)ccc1F (stereo not given),-0.3,x,26,-11,-4%,
COc1ccccc1C1CC(c2c(-c3ccccc3)c3cc(Cl)ccc3[nH]c2=O)=NN1S(C)(=O)=O (stereo not given),x,-15,-24,96,u,
CCOC(=O)c1ccc(N(C(=O)c2ccco2)C(C(=O)NC2CCCCC2)c2ccncc2)cc1 (stereo not given),-0.6,x,x,-2,x,
COC(=O)c1cc2occc2n1CC(=O)Nc1ccc(OC)c(OC)c1,-0.8,-52,1,3,-9%,
Cc1ccc(CNS(=O)(=O)c2cc3c4c(c2)C(C)C(=O)N4CCC3)cc1 (stereo not given),0.0,x,x,0,x,
SMILES,RecA splice inh,YopH inh,Arbovirus inh,Mtb betalactam,Mtb growth,others
CCCNC(=O)CCCCn1c(=S)[nH]c2c([nH]c3ccc(OC)cc32)c1=O,1.4,x,-2,4,4%,
C[C@]1(C(=O)NCc2cc(F)cc(C(F)(F)F)c2)C=C[C@@H](Cc2ccccc2)N1C(=O)c1ccccc1,7.6,-19,-23,5,21%,
Cc1ccc2oc(=O)n(Cc3ccc(F)cc3)c2c1,-0.8,x,x,4,x,
CC1=CC2=NC(=O)/C(=C/c3cccs3)C(=N)N2O1,x,x,x,-5,-6%,
COC(=O)c1c(NC(=O)C(C)C)sc(C(=O)N2CCOCC2)c1C,3.0,x,x,-3,x,
CC(C)[C@@H](C(=O)N1CCNCC1)n1cc(CCO)nn1,-0.1,x,5,-10,-5%,
Cc1ccc(NC(=S)N2CCN(c3ncccn3)CC2)c(C)c1,1.7,-27,5,5,6%,
Cc1cc(Nc2cccc(Cl)c2Cl)n2ncnc2n1,-1.8,x,x,0,x,
Cc1[nH][nH]c(=O)c1C(c1cc([N+](=O)[O-])ccc1O)c1c(C)[nH][nH]c1=O,96*,-23,-23,-1,1%,
Cn1nc(C(=O)NCCc2ccc(S(N)(=O)=O)cc2)c2ccccc2c1=O,0.8,x,x,3,-12%,
O=C(COC(=O)c1cncc(Br)c1)NC1CCCCC1,1.9,x,6,0,1%,
COc1ccc2nc(N3C(=O)C(O)=C(C(=O)c4ccco4)C3c3ccccc3OC)sc2c1 (stereo not given),-1.0,x,x,-3,x,
c1ccc(-n2nnnc2NC2CCCCCC2)cc1,-2.3,-27,-2,7,-1%,
Cc1nn(C)c(C(=O)Nc2ccc(Cn3cccn3)cc2)c1[N+](=O)[O-],0.6,-6,3,-3,x,
CS(=O)(=O)c1nc2ccccc2n1Cc1ccccc1,1.7,-25,2,6,-6%,
O=C1/C(=C/c2ccncc2)SC(=S)N1Cc1ccccc1,28,x,x,82,3%,
CC(C)c1c(C(=O)N/N=C/c2ccoc2)nnn1-c1nonc1N,-4.4,x,x,-2,x,
COc1ccccc1C(=O)NCC(c1ccco1)N1CCc2ccccc21 (stereo not given),5.4,x,x,-4,x,
CCN(CC)S(=O)(=O)c1ccc(C(=O)NNC(=O)c2csc(N3CCOCC3)n2)cc1,1.0,x,x,-5,x,
Cc1ccc(S(=O)(=O)NNC(=O)c2ccncc2)cc1,-5.7,-26,9,-5,6%,
O=S(=O)(Cc1ccccc1)Cc1cnc(Cl)s1,-6.4,x,1,-6,4%,
COC(=O)c1ccccc1NC(=O)Nc1cc(C)ccn1,-1.0,x,6,1,-3%,
COc1ccc(NC(=O)COC(=O)c2ccc(OCc3ccc(Cl)cc3Cl)c(OC)c2)c(OC)c1,0.4,-15,-13,-4,-5%,
CCN1CCN(C(=S)Nc2ccc(Cl)c(Cl)c2)CC1,-0.7,-27,3,-3,9%,
CCOCCCNC(=O)C1CCCN(S(=O)(=O)c2ccc(-n3cnnn3)cc2)C1 (stereo not given),-1.8,x,x,1,x,

# Next part, overlapping the part above by 7 compounds.
SMILES,RecA splice inh,YopH inh,Arbovirus inh,Mtb betalactam,Mtb growth,others
CCN(CC)S(=O)(=O)c1ccc(C(=O)NNC(=O)c2csc(N3CCOCC3)n2)cc1,1.0,x,x,-5,x,
Cc1ccc(S(=O)(=O)NNC(=O)c2ccncc2)cc1,-5.7,-26,9,-5,6%,
O=S(=O)(Cc1ccccc1)Cc1cnc(Cl)s1,-6.4,x,1,-6,4%,
COC(=O)c1ccccc1NC(=O)Nc1cc(C)ccn1,-1.0,x,6,1,-3%,
COc1ccc(NC(=O)COC(=O)c2ccc(OCc3ccc(Cl)cc3Cl)c(OC)c2)c(OC)c1,0.4,-15,-13,-4,-5%,
CCN1CCN(C(=S)Nc2ccc(Cl)c(Cl)c2)CC1,-0.7,-27,3,-3,9%,
CCOCCCNC(=O)C1CCCN(S(=O)(=O)c2ccc(-n3cnnn3)cc2)C1 (stereo not given),-1.8,x,x,1,x,
Cc1[nH]c2ccc(OC(F)(F)F)cc2c1CCN1C(=O)c2ccc(C(=O)O)cc2C1=O,2.7,x,x,9,x,
Cc1ccc(C)c(NC2=C(Cl)C(=O)OC2OC(C)C)c1 (stereo not given),-5.0,x,-9,7,-8%,
O=C(NN=C1CCCCCCC1)c1ccccn1,x,-10,-5,100,28%,
Cc1ccc(NC(=O)CSc2nnc(C)n2CC2CCCO2)cc1 (stereo not given),x,x,5,3,1%,
Cc1ccc(N2CCN(S(=O)(=O)c3ccc4c(c3)n(C)c(=O)c(=O)n4C)CC2C)cc1 (stereo not given),1.0,-27,-2,u,-12%,
Oc1ccc(C2=Nn3c(nnc3-c3ccco3)SC2)cc1O,-4.5,-52,-23,-3,x,
COc1ccc2c(c1OC)C(=O)OC2c1c(O)nc(SC)n(-c2ccccc2)c1=O (stereo not given),-1.9,-58,-2,2,-21%,
COc1ccc(NC(=O)CN(C)C(=O)c2ccccc2OC)cc1,-0.8,x,x,6,x,
Cc1nc2nc(C)c(CCC(=O)NCCCN3CCN(c4cccc(Cl)c4)CC3)c(C)n2n1,0.8&0.4,-32,3&6,-5&-7,4%,
CCOC(=O)N1CCN(C(=O)C2CCCN(Cc3nc(-c4ccc(Cl)cc4)oc3C)C2)CC1 (stereo not given),-0.1,-20,9,-6,x,Arbovirus inh repeat=1
N#CCN1CCC(c2cc(-c3ccco3)n[nH]2)CC1,x,x,4,-9,-3%,
COc1ccc(CCNC(=O)CC2SC(=NCCc3ccccc3)NC2=O)cc1OC (stereo not given),-1.0,-16,5,-9,3%,
CC(C)(C)c1nn(-c2ccccc2)c2[nH]c(=O)c(CNCc3ccc4c(c3)OCO4)cc12,3.5,-4,-5,100,11µM*,
Cc1ccc(NC(=O)CCC2CC(C)(C)OC2=O)cc1 (stereo not given),1.0,x,3,-7,x,
CCOC(=O)c1ccc2[nH]c3c(c2c1)CCCC3C(=O)OCC (stereo not given),-1.0,2,11,99,-4%,
